# Screening data (PubChem)
# VDR inh = Inhibitors of the vitamin D receptor (VDR): qHTS. Vitamin D3 receptor (Homo sapiens), P11473. VDR-SRC2-3 peptide fluorescence polarization, 2 h. Potency, µM, for the others: max response, negative = inhibition, hits mostly inhibitors. 400,000 tested, 0.93% active. AID 504847, 2011; active means well fitted inhibition curve with a large enough effect; inconclusive means small, poorly fitted or top-dose-only effect, or another doubt; inactive means no such curve, though single readings can be large or run the other way; further: series mostly up to about 120 µM
# Target sequence (P11473 whole entry, looked up): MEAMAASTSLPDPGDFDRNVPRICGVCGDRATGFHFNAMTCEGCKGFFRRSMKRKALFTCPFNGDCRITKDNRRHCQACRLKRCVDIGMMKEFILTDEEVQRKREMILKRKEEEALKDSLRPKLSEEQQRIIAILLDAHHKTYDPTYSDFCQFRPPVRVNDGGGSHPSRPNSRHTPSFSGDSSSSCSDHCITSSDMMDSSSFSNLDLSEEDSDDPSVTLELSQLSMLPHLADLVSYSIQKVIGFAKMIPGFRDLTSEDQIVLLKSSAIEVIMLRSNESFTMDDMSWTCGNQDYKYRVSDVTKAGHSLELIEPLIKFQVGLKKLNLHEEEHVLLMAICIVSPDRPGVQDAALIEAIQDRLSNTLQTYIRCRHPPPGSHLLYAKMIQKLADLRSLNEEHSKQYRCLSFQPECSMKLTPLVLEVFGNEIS
#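 Fluorescence polarization assay of small-molecule disruption of VDR binding to coregulator peptide SRC2-3. Compounds and controls pin-transferred, then read after 2 h incubation at ambient room temperature.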
# Starred values were filed as active, the others as inactive; ? = inconclusive; & = joins results of further samples. On the % scale 0 is the no-effect control and ±100 the full control effect; potency means the concentration at half of the fitted maximal effect.
SMILES,VDR inh
Cc1ccc(S(=O)(=O)NC(=O)COc2ccc(Cl)cc2Cl)cc1,-11%
CCc1cccc(NCc2ccccc2-c2nnc(-c3ccccc3Cl)o2)c1,-11%
CCN1CCN(C(=O)c2ccc(N3CC4CC(C3)c3cccc(=O)n3C4)c(NC(=O)c3cc(OC)cc(OC)c3)c2)CC1 (stereo not given),-5%
Cc1cc(NC(=O)CN2C(=O)NC(C)(c3ccc(Cl)cc3Cl)C2=O)no1 (stereo not given),3%
O=C(NCc1ccc(Cl)cc1)C(=O)NCC(c1ccc2c(c1)OCO2)N1CCOCC1 (stereo not given),0%
Cc1noc(C)c1COc1ccc(C(=O)NCCOc2ccccc2)cc1,2%
COc1ccc(NC(=O)Cn2c(-c3ccc(F)cc3)cc(C(C)=O)c2C)c(OC)c1,4%
Cc1ccc(S(=O)(=O)N(CC(=O)NCCC2=CCCCC2)Cc2ccccc2)cc1,1%
CCCOc1ccccc1C(=O)N1CCNC(=O)C1CC(=O)OC(C)C (stereo not given),1%
CCC(=O)N1CCN(CCN=CC2=C(O)CC(c3cccs3)CC2=O)CC1 (stereo not given),16%
CC(C)Sc1cc(N2CCOCC2)nc(-c2ccccc2)n1,24%
O=C1CC(NCc2ccncc2)C(=O)N1c1ccc(Cl)cc1 (stereo not given),-1%
Cc1ccccc1OCc1nnc(SC(C)C(=O)O)n1Cc1ccccc1 (stereo not given),-8%
Cc1ccc(-n2nnc3c(=O)n(CC(=O)c4ccccc4)cnc32)cc1,-7%
O=C(Nc1ccccn1)c1ccc(Br)c(S(=O)(=O)N2CCCC2)c1,-3%
Cc1cccc(C(=O)c2cccc(C)c2)c1,-14%
CCOC(=O)c1c(NC(=O)C(C)Sc2nnc(C)c(=O)[nH]2)sc2c1CCCC2 (stereo not given),-19%
CCC(C)c1ccc(NC(=O)CSc2nncn2N)cc1 (stereo not given),5%
Oc1cccc(/C=N/Nc2ncnc3c2ncn3Cc2ccccc2)c1,-1%
Cc1cc(C)cc(NC(=O)N2CCC(N3CCN(Cc4ccccc4)C(=O)C3=O)CC2)c1,0%
COc1ccc(CCc2nc(C)ccc2O)cc1,8%&2%
COc1ccc(C)cc1N(CC(=O)NC1CCCC1)C(=O)Cn1nnc(-c2ccc(C)o2)n1,5%
Cn1c(SCC(=O)NCCNC(=O)CSc2nnc(C(F)(F)F)n2C)nnc1C(F)(F)F,-7%
Cc1cc(Cl)ccc1OCC(=O)NCC(=O)N/N=C/c1ccco1,-3%
CCN(CC)CCSc1nnc2c3cc(C)ccc3n(Cc3ccccc3)c2n1,-22%
COc1cc(/C=N/NS(=O)(=O)c2ccc(Br)cc2)ccc1O,-9%
Cc1cc(C)c(C(=O)/C=C/c2cccc3ccccc23)c(=O)[nH]1,?
CCN1CCCC1CNC(=O)C(=O)Nc1ccc(OC)cc1 (stereo not given),14%
CCC1Oc2ccccc2N(CC(=O)NCCN2C(C)CCCC2C)C1=O (stereo not given),1%
COCCNC(=S)N1CCc2cc(OC)c(OC)cc2C1COc1cc(C)cc(C)c1 (stereo not given),4%
COc1ccc(-n2c(CSc3nc(C)cc(C)n3)nnc2SCC(=O)Nc2nccs2)cc1,22%
CN(c1ccccc1C(=O)Nc1cccc([N+](=O)[O-])c1)S(=O)(=O)c1ccccc1,-12%
CCc1cccc(-n2c(=O)c3cccnc3n2CC(=O)Nc2ccc(OC)c(Cl)c2)c1,4%
Cc1ccccc1C(=O)Nc1ccccc1C(=O)N1CCC(C)CC1,19%
Cc1cccc(N2CCN(C(=O)Cn3c(-c4cccs4)cc4ccccc43)CC2)c1C,-5%
Cc1cc(=O)oc2cc(OS(C)(=O)=O)ccc12,-14%
COc1ccc(-c2nc(CS(=O)CC(=O)NC(C)CCc3ccccc3)c(C)o2)cc1OC (stereo not given),4%
COc1cc(/C=N/NC(=O)c2ccc(N(C)S(=O)(=O)c3ccccc3)cc2)cc(OC)c1OC,-4%
CCCCCSc1nc2c(cnn2-c2ccc(F)cc2)c(=O)[nH]1,-22%
CN1C(=O)c2ccccc2C(O)c2ccccc21 (stereo not given),-7%

# Some of these compounds in order of their number in VDR inh, smallest number first:
SMILES,VDR inh
Cc1cc(=O)oc2cc(OS(C)(=O)=O)ccc12,-14%
CN(c1ccccc1C(=O)Nc1cccc([N+](=O)[O-])c1)S(=O)(=O)c1ccccc1,-12%
Cc1cccc(N2CCN(C(=O)Cn3c(-c4cccs4)cc4ccccc43)CC2)c1C,-5%
COc1ccc(-c2nc(CS(=O)CC(=O)NC(C)CCc3ccccc3)c(C)o2)cc1OC (stereo not given),4%

# Other records follow:
SMILES,VDR inh
O=C(Nc1ncc2c(n1)CC(c1ccco1)CC2=O)c1ccccc1 (stereo not given),-6%
COc1ccc(OC)c(C2CC(=O)c3c([nH]c(C(=O)OC4CCC(C)CC4)c3C)C2)c1 (stereo not given),-28%
O=[N+]([O-])c1cc(/C=N/O)ccc1Sc1ccccc1,14%
Cc1cc2oc(=O)cc(C)c2cc1NC(=O)CCl,29%
CCN(CC)S(=O)(=O)c1ccc(N2CCOCC2)c(NC(=O)c2cc(C)cc(C)c2)c1,3%
c1cncc(-c2noc(-c3ccc4ccccc4c3)n2)c1,-15%
Cn1cnnc1SCC(=O)N(Cc1ccc2c(c1)OCO2)C1(C(=O)NC2CCCCC2)CCCC1,-3%
CCOCCCNC(=O)C1CC(=O)N(C2CCCC2)C1 (stereo not given),1%
CC(C)C[C@@H](COc1ccccc1)N1CCN(CC(C)C)CCC1=O,-3%
CCOC(=O)CSc1nnc2n(Cc3ccccc3)c(=O)c3c4c(sc3n12)CCC4,1%
Cn1c(Cn2nnc3ccccc32)nnc1SCC(=O)NCc1ccc2c(c1)OCO2,-5%
CC(=O)Nc1nnc(-c2ccccn2)o1,?
O=C(COc1ccccc1Cl)NNC(=O)c1ccc2nc[nH]c2c1,0%
COc1ccc(OC(=O)c2cccc(S(=O)(=O)N3CC(C)OC(C)C3)c2)cc1 (stereo not given),-7%
Cc1ccc(CN2CCSc3ccc(C(=O)NCc4ccccn4)cc32)cc1,3%
COc1cccc(Nc2ncc3nc(-c4cn(C)c5ccccc45)c(=O)n(C[C@H]4CCCO4)c3n2)c1,4%
C[C@]12CCC(=O)C=C1CC[C@@H]1[C@@H]2CC[C@@]2(C)[C@H]1CC[C@@]21CCC(=O)O1,-12%
CCN(CC)S(=O)(=O)c1ccc2c(c1)nc(CCC(=O)O)n2CC,8%
Cc1ccc(C)c(NC(=O)c2cc(-c3cccnc3)nc3ccccc23)c1,-10%
CC(=O)c1ccc(S(=O)(=O)NC2CC2)cc1,-10%
COc1ccc(OC)c(C2C(C#N)=C(N)N(N(C)C)C3=C2C(=O)CCC3)c1 (stereo not given),-20%
CCOC(=O)c1cc(CC)sc1NC(=O)COc1ccccc1C,-23%
Cc1cc(C)cc(CSCC(=O)NN=C2CCCCCC2)c1,-21%
COc1ccc(C(=O)O/N=C(\N)Cc2ccc(Cl)c(Cl)c2)cc1OC,-3%
COc1ccc(CCNC(=O)c2cnc3ccc(C)cn3c2=O)cc1OC,-16%
Cc1ccccc1C(OCC(O)CN1CCCCC1CCO)c1ccccc1 (stereo not given),21%
CC(C(=O)NCC1(c2ccccc2)CCCC1)N1CCOCC1 (stereo not given),-17%
c1ccc2c(c1)Nc1nccnc1S2,?
Cc1ccc(-c2nnc(CSc3nc(C)nc4sc(C)c(C)c34)o2)cc1,5%
O=C(CNCc1ccccn1)N1CCc2ccccc2C1,6%
O=C(CSc1nc2[nH]ncc2c(=O)[nH]1)N1CCCCC1,1%
O=C(Nc1cccc(F)c1)C1CCN(C(=O)N2CCOc3ccccc32)CC1,-4%
CCOC(=O)C1=C(C)NC(C)=C(C(=O)OCC)C1c1ccc(OC)cc1,5%
CCOc1ccc(CNC(=O)c2ccc(Sc3ccc(C)cc3)c(N)c2)cc1OC,-3%
Cc1cccc(-n2c(CCn3nc(C)c([N+](=O)[O-])c3C)n[nH]c2=S)c1,11%
CCOC(=O)Cn1c(=O)oc2cc(S(=O)(=O)Nc3ccccc3F)ccc21,-5%
CC(=O)C1=C(O)C(=O)N(c2nccs2)C1c1ccc(F)cc1 (stereo not given),?
CC1CCN(C(=O)CSc2ccc(-c3ccc(F)cc3)nn2)CC1,1%
CN(c1ccccc1)S(=O)(=O)c1cccc(C(=O)NCc2ccccc2CN2CCCC2)c1,18%
CCSc1ncc(Cl)c(C(=O)Nc2sc3c(c2C(=O)NCCCOC)CCCC3)n1,14%
COCCn1c(SCC(=O)N2CCc3ccccc3C2)nc2ccccc2c1=O,-21%
CS(=O)(=O)c1ccc(Cl)c(NC(=O)Cc2c(F)cccc2Cl)c1,-14%
S=c1nc(-c2cccc(Br)c2)[nH][nH]1,-23%
CCOc1ccc(OCC)c(NC(=O)CN(c2ccc(C)cc2)S(=O)(=O)c2c(C)n[nH]c2C)c1,?
CCO[C@@H]1OC(C(=O)NCc2nc3ccccc3[nH]2)=C[C@H](c2cn(C(C)=O)c3ccccc23)[C@H]1CCCO,-13%
O=C(Nc1ccc2c(c1)COC2=O)c1ccc(Cl)c(Cl)c1,9%
CC(=O)C1=C(C)NC(SCC(=O)c2ccc(Cl)cc2Cl)=C(C#N)C1c1ccco1 (stereo not given),22%
C/C(=N\NC(=O)CSc1nnc(C)s1)c1ccc(Cl)cc1,8%
Cc1ccc(SCC(=O)OCC(=O)N(CC(C)C)c2c(N)n(Cc3ccccc3)c(=O)[nH]c2=O)cc1C,-11%
CCOC(=O)c1cccc(NC(=O)C2CCC(CNc3c(N4CCOCC4)c(=O)c3=O)CC2)c1 (stereo not given),-12%

# Pulled one by one from above (2):
SMILES,VDR inh
O=C(Nc1ccc2c(c1)COC2=O)c1ccc(Cl)c(Cl)c1,9%
C/C(=N\NC(=O)CSc1nnc(C)s1)c1ccc(Cl)cc1,8%

# Further entries:
SMILES,VDR inh
CCNC(=O)COc1ccc2ccccc2c1,1%
O=S(=O)(c1ccc(F)cc1)N1CCC(c2nc3ccccc3[nH]2)CC1,-9%
CC(=O)Oc1ccc(N(C(C)=O)S(=O)(=O)c2ccc3ccccc3c2)cc1Br,8%
CC(C)(Oc1ccc(Cl)cc1)C(=O)N1CCN(C(=O)c2ccco2)CC1,-17%
O=S(=O)(c1ccc(Cl)c(C(F)(F)F)c1)N1CCN(CC(O)COCC2CCCO2)CC1 (stereo not given),19%
Cc1cc(NC(=O)COc2ccc([N+](=O)[O-])cc2)no1,-22%
CCOc1ccccc1N1C(=O)CC(Nc2ccc(N3CCOCC3)cc2)C1=O (stereo not given),-4%
CN(Cc1ccccc1)S(=O)(=O)c1ccc(NC(=O)c2cc(=O)c3ccccc3o2)cc1,-6%
N#C/C(=C\c1ccc(Cl)cc1)c1nc(-c2cc3ccccc3oc2=O)cs1,-6%
Cc1ccc(/C=C/C(=O)O)cc1S(=O)(=O)NCCO,-2%

# Filtered by structure: the entries above containing fluorine
SMILES,VDR inh
COc1ccc(NC(=O)Cn2c(-c3ccc(F)cc3)cc(C(C)=O)c2C)c(OC)c1,4%
Cn1c(SCC(=O)NCCNC(=O)CSc2nnc(C(F)(F)F)n2C)nnc1C(F)(F)F,-7%
CCCCCSc1nc2c(cnn2-c2ccc(F)cc2)c(=O)[nH]1,-22%
O=C(Nc1cccc(F)c1)C1CCN(C(=O)N2CCOc3ccccc32)CC1,-4%
CCOC(=O)Cn1c(=O)oc2cc(S(=O)(=O)Nc3ccccc3F)ccc21,-5%
CC(=O)C1=C(O)C(=O)N(c2nccs2)C1c1ccc(F)cc1 (stereo not given),?
CC1CCN(C(=O)CSc2ccc(-c3ccc(F)cc3)nn2)CC1,1%
CS(=O)(=O)c1ccc(Cl)c(NC(=O)Cc2c(F)cccc2Cl)c1,-14%
O=S(=O)(c1ccc(F)cc1)N1CCC(c2nc3ccccc3[nH]2)CC1,-9%
O=S(=O)(c1ccc(Cl)c(C(F)(F)F)c1)N1CCN(CC(O)COCC2CCCO2)CC1 (stereo not given),19%

# Later entries.
SMILES,VDR inh
CCOC(=O)c1c(NC(=O)CSc2ncn[nH]2)sc(C(=O)NC)c1C,7%
Cc1nc2nc(C)c(NS(=O)(=O)c3ccc(F)cc3)c(=O)n2[nH]1,-6%
Cc1c(Cc2ccc3c(c2)OCO3)sc(NC(=O)C2CC2)c1C(N)=O,50µM*
COc1cc(OC)cc(C(=O)N[C@H](C(=O)OCC(=O)NC(=O)c2cccn2C)C(C)C)c1,-5%
COc1ccc(N2CCC(N3CCN(C)C(CCO)C3)CC2)cc1 (stereo not given),1%
CCOC(=O)N1CCN(C(=O)COC(=O)c2cccc(S(C)(=O)=O)c2)CC1,18%
O=C(Nc1ccc(-c2noc(CCc3ccccc3)n2)cc1)c1cccnc1,3%
Cn1c(=O)c2c(SCC(=O)NCc3ccc(F)cc3)nc(-c3ccccc3Cl)nc2n(C)c1=O,4%
O=C(CCCCn1c(=O)c2ccccc2n(Cc2ccc(F)cc2)c1=O)NCc1ccco1,-20%
CCN(C(=O)c1c(N)cnn1C)c1ccccc1,3%
O=C(NCCN1CCOCC1)NC1(C(F)(F)F)Oc2ccc(Cl)cc2O1 (stereo not given),-19%
O=C(O)CC(NS(=O)(=O)c1ccc(Br)s1)c1ccccc1 (stereo not given),-5%
Cc1noc(C)c1C1(O)CCCCCCCCCCC1,8%
Cc1ccc(C)c(NC(=O)Cn2c(-c3nonc3N)nc3ccccc32)c1,7%
Cc1cccc(NC(=O)c2ccc(-n3cncn3)c([N+](=O)[O-])c2)c1,-4%
O=C(NCCc1c[nH]c2ccccc12)c1ccco1,7%
CN(c1cccc(NC(=O)Nc2cccc(Cl)c2)c1)S(C)(=O)=O,7%
CCOc1cc(/C=N/NC(N)=O)cc(Br)c1OCC(=O)Nc1cccc2ccccc12,12%
O=C(COc1coc(CN2CCN(c3ccccc3)CC2)cc1=O)Nc1cccc(F)c1,-9%
O=C(CN1CCN(Cc2cccc(Cl)c2)C1=O)NCc1ccc(F)cc1,10%

# Only part of the results is shown (hit frequency here may not be typical).
